# D3 antag = D3 dopamine receptor (human) antagonism | hit rate 2.5% among 360,000 | AID 652054 | P35462 | max response, negative = inhibition, % | D3R cells, DiscoveRx beta-arrestin luminescence, antagonist mode; active compounds read low; in the data active = max response below about -50%; inconclusive = no clear call, values can overlap the other calls; also: % is scaled to controls: 0 for no effect and ±100 for the full control effect; mostly tested at two doses, the higher about 12 µM
# Target sequence (P35462 whole entry, looked up): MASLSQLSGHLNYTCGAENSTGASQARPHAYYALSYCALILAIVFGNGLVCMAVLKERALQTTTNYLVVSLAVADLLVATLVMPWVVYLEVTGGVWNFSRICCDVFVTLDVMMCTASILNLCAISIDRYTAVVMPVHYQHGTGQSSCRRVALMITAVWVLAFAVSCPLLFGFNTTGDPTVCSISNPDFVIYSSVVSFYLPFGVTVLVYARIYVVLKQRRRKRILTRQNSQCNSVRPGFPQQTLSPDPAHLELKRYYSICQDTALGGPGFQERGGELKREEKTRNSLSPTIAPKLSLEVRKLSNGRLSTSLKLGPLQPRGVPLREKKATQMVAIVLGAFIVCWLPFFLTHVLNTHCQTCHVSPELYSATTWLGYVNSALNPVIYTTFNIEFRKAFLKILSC
#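 Cells plated overnight at 1500 cells/well, then exposed to library compounds with dopamine controls for 90 minutes at 37 degrees C. DiscoveRx reagent added for 30–60 minutes at room temperature; luminescence read, quantitative HTS format.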
# PI5P4K alpha inh = blocks human PI5P4K alpha kinase activity | PI5P4Kalpha enzyme, ADP-Glo luminescence, 60 min; active compounds read low | P48426 | max response, % | hit rate 1.2% among 330,000; active = max response of -50% or lower; inconclusive = between -30% and -50%; inactive = -30% or higher; also: value at the top dose of about 77 µM; % is scaled to controls: 0 for no effect and ±100 for the full control effect
#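 qHTS, 1536-well: enzyme/substrate mix, compound by pin tool, 5 microM ATP final; RT 60 min; ADP-Glo reagents 1 (45 min) then 2 (30 min); luminescence.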
# D3 ag = D3 dopamine receptor (human) agonism; P35462; D3R DiscoveRx beta-arrestin cells, luminescence, 90 min; max activation, %; hit rate 0.58% among 410,000; AID 652048; in the data active = max activation above about 30%; also: 0% is about no effect; mostly tested at two doses, the higher about 12 µM
#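 Cells at 1500/well, incubated overnight, then treated with pinned compounds (dopamine as control) for 90 min at 37 degrees C. DiscoveRx reagent added for 30 - 60 minutes at room temperature; luminescence read.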
# GLP1R ag = activates the human GLP-1 receptor | P43220 | HEK293 GLP-1R CRE-luciferase, luminescence, 4-6 h; cells express a hypersensitive GLP-1R form | Potency, µM (top dose mostly 45.6 µM), without a hit: at the highest dose activation, usual class: activators | hit rate 0.007% among 380,000; also: potency is read from the fitted curve at half-maximal effect; % of control where 0% means no effect
# Target sequence (P43220 whole entry, looked up): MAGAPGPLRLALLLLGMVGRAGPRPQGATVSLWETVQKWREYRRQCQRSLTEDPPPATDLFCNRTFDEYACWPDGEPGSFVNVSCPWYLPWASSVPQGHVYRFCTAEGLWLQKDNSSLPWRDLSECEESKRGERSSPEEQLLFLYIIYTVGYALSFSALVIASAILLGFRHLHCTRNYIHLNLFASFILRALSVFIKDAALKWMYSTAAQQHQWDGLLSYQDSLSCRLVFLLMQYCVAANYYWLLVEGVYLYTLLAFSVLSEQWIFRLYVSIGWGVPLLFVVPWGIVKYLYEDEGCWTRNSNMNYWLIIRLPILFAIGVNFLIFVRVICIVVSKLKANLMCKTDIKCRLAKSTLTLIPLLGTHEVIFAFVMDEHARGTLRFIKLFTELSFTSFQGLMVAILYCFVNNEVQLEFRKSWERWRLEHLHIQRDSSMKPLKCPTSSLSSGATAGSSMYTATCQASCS
# IL2 activator = activates IL-2 in a cell-based reporter assay | hit rate 0.065% among 360,000 | activation, % (series mostly up to about 46 µM) | IL-2 activation reporter assay, cell-based qHTS; stimulated with anti-CD3/CD4/CD28 beads; in transgenic mouse T cells; in the data active = activation above about 50%; inconclusive = mostly about 30% to 49%; also: 0% is about no effect
#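 EGFP and DsRed fluorescence is measured by plate cytometry in unstimulated transgenic mouse T cells exposed to compound for 60 minutes, then stimulated 18 hours at 37 degrees C with anti-CD3/anti-CD4 beads plus anti-CD28.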
# GLP1R cytotox = cytotoxicity in counter-screen for GLP-1R inverse agonists; HEK293 cAMP-luciferase reporter cells, luminescence, 24 h; Potency, µM (titrated, usually from 38.3 µM), without a hit: top-dose activity change, negative = inhibition, hits mostly inhibitors; hit rate 0.13% among 410,000; AID 624418;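 also: loss of luciferase light is scored as toxicity; potency is read from the fitted curve at half-maximal effect; % is scaled to controls: 0 for no effect and ±100 for the full control effect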
#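 Luminescence readout: signal drop marks cytotoxicity. Plated cells grew 12 h at 37 °C, 5% CO2, received 23 nL compound for 24 h, then got luciferase reagent, read after 12 min at RT.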
# GLP1R inv ag = inverse agonists of human GLP-1 receptor; hit rate 1.6% among 410,000; HEK293 GLP-1R CRE-luciferase, luminescence, 24 h; GLP-1R form is constitutively active; Potency, µM (doses to about 38.3 µM), inactives show at the top dose activity change, negative = inhibition, hits mostly inhibitors; P43220; also: potency is read from the fitted curve at half-maximal effect; % is scaled to controls: 0 for no effect and ±100 for the full control effect; nearly all actives have a fitted effect of over 55% in size
#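 qHTS in 1536-well format: reporter HEK293 cells expressing constitutive GLP-1R activity in DMEM + 10% Nu serum, 24 hr with compounds at 37 deg C, luminescence read after 12 min with detection reagent.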
# PLK1 PBD block = PLK1 (human) polo-box domain binding inhibition | hit rate 2.8% among 360,000 | AID 720504 | Plk1 PBD binding of FITC phosphopeptide, fluorescence polarization | P53350 | Potency, µM, inactives show max response, negative = inhibition, actives largely listed as inhibitors; also: potency is read from the fitted curve at half-maximal effect; series mostly up to about 57 µM; % is scaled to controls: 0 for no effect and ±100 for the full control effect; nearly all actives have a fitted effect of over 65% in size
# Numbers without * were called inactive; u = inconclusive; x = not tested or not shown; [ ] = dose if it differs, or a comment. Unless noted, calls follow the shape of the dose curve; as a rule, active = well fitted curve in the direction sought with a large enough effect; inconclusive = small, poorly fitted or top-dose-only effect, or another doubt; inactive = no such curve, though single readings can be large; an effect the other way counts as inactive or inconclusive.
SMILES,D3 antag,PI5P4K alpha inh,D3 ag,GLP1R ag,IL2 activator,GLP1R cytotox,GLP1R inv ag,PLK1 PBD block
Cc1nn(-c2ccc(Cl)cc2)c2[nH]c(=O)c(CNCc3ccc4c(c3)OCO4)cc12,-21,-4,-8,18%,-0.5,0%,u,u
CC1CC(C(F)F)n2nc(C(=O)Nc3sc4c(c3C#N)CCC(C(C)(C)C)C4)nc2N1 (centres undefined),14,-1,2,-7%,2.3,-12%,-1%,-5%
CC(C)NC(=O)NC(=O)CSc1nnc(C(F)(F)F)n1C,14,-3,-1,2%,-0.3,-5%[7.66 µM],9%[7.66 µM],-18%
O=C(c1cc(COc2ccc(F)c(F)c2)on1)N1CCOCC1,-8,2,1,9%,-4.1,-3%,12%,-18%
Cc1ccc(NC(=O)/C(C#N)=C/c2ccc(Sc3nc(C)cc(C)n3)o2)cc1,19,x,3,-8%,9.8,-16%,16%,-1%
O=C(NNC(=O)c1ccco1)c1ccco1,-16,1,3,-3%,0.6,-7%,-14%,-10%
COC(=O)c1ccc(C2CC(=O)NC3=C2C(=O)CCC3)cc1 (centres undefined),-11,2,-5,4%,0.0,3%,15%,-7%
COc1ccc(C(=O)/C=C/c2cccc(OCc3ccccc3)c2)cc1CSCC(=O)O,-25,-14,-3,-1%,-2.8,-13%,u,21µM*
COc1ccc(CNC(=O)c2noc3c2CCCCC3)cc1,22,x,6,14%,-1.8,-8%,11%,-5%
COc1ccc(-c2cnc3c(NC=O)cc(-c4ccc(S(C)(=O)=O)cc4)cn23)cc1OC,100,-18,19,u,-0.7,-14%,19%,-16%

# Four successive compounds out of the list so far, for reference:
SMILES,D3 antag,PI5P4K alpha inh,D3 ag,GLP1R ag,IL2 activator,GLP1R cytotox,GLP1R inv ag,PLK1 PBD block
COC(=O)c1ccc(C2CC(=O)NC3=C2C(=O)CCC3)cc1 (centres undefined),-11,2,-5,4%,0.0,3%,15%,-7%
COc1ccc(C(=O)/C=C/c2cccc(OCc3ccccc3)c2)cc1CSCC(=O)O,-25,-14,-3,-1%,-2.8,-13%,u,21µM*
COc1ccc(CNC(=O)c2noc3c2CCCCC3)cc1,22,x,6,14%,-1.8,-8%,11%,-5%
COc1ccc(-c2cnc3c(NC=O)cc(-c4ccc(S(C)(=O)=O)cc4)cn23)cc1OC,100,-18,19,u,-0.7,-14%,19%,-16%

# Carrying on.
SMILES,D3 antag,PI5P4K alpha inh,D3 ag,GLP1R ag,IL2 activator,GLP1R cytotox,GLP1R inv ag,PLK1 PBD block
S=c1[nH]ncn2c1cc1oc3ccccc3c12,4,2,-8,-8%,-0.6,0%[0.307 µM],3%[0.307 µM],-8%
C/C(=N/N=C1/NC(=O)CC(C(=O)Nc2ccccc2)S1)c1cccs1 (centres undefined),-11,1,3,13%,2.2,-3%,-44%,-1%
O=C(O)c1c2c(nc3ccccc13)/C(=C/c1ccccc1[N+](=O)[O-])CCC2,u,-3,-13,11%,-0.4,0%,42%[activator],-21%
Cc1ccc([N+](=O)[O-])cc1-c1ccc2cccc(C)c2n1,u,10,-2,7%,0.5,11%,u,-5%
O=C1OC(c2ccccc2)(c2ccccc2)c2ccsc21,-8,2,0,-3%,2.3,-5%,u,-7%
COc1ccc(NC(=O)CSc2ccc(-c3ccco3)nn2)cc1,-10,u,1,1%,-4.8,15%,17%,-25%
COc1ccc(-c2sc3cc4c(cc3c2C#Cc2ccc(N)cc2)OCO4)cc1,5,67,-19,-2%,1.3,5%,-20%,-4%
COc1cc(/C=C2/NC(=O)N(CC(=O)Nc3cccc(C)c3)C2=O)ccc1OCC(N)=O,-16,-14,4,6%,0.6,10%,3%,27µM*
CN(CC(=O)Nc1ccccc1)CC(=O)Nc1ccccc1Cl,4,2,2,-4%,-2.8,0%,u,3%
Cc1cccc(N2CCN(C(=O)c3cc(COc4ccc(F)c(F)c4)on3)CC2)n1,2,19,2,5%,-1.5,0%,u,-3%

# Profiles, quoted from the list. Values in the order: D3 antag, PI5P4K alpha inh, D3 ag, GLP1R ag, IL2 activator, GLP1R cytotox, GLP1R inv ag, PLK1 PBD block
# Listed for `Cc1cccc(N2CCN(C(=O)c3cc(COc4ccc(F)c(F)c4)on3)CC2)n1` → 2, 19, 2, 5%, -1.5, 0%, u, -3%
# Listed for `O=C1OC(c2ccccc2)(c2ccccc2)c2ccsc21` → -8, 2, 0, -3%, 2.3, -5%, u, -7%
# Listed for `CN(CC(=O)Nc1ccccc1)CC(=O)Nc1ccccc1Cl` → 4, 2, 2, -4%, -2.8, 0%, u, 3%
# Listed for `COc1cc(/C=C2/NC(=O)N(CC(=O)Nc3cccc(C)c3)C2=O)ccc1OCC(N)=O` → -16, -14, 4, 6%, 0.6, 10%, 3%, 27µM*
# Listed for `Cc1ccc([N+](=O)[O-])cc1-c1ccc2cccc(C)c2n1` → u, 10, -2, 7%, 0.5, 11%, u, -5%

# New compounds follow.
SMILES,D3 antag,PI5P4K alpha inh,D3 ag,GLP1R ag,IL2 activator,GLP1R cytotox,GLP1R inv ag,PLK1 PBD block
C=CCSc1n[nH]c(-c2ccc(OC)cc2)n1,-5,x,3,-7%,2.6,-19%,19%,-2%
Cc1ccc(CN2CCC(CO)(CC3CCCCO3)CC2)o1 (centres undefined),-63*,-2,-13,3%,0.0,18%,11%,-6%
O=C(COc1ccc2ccccc2c1)N1CCN(c2ccccc2O)CC1,14,-12,-2,-5%,-1.1,-6%,u,-10%
CCCCOc1ccc(C(=O)N2CCCCCC2)cc1,20,3,-1,28%,-0.7,15%,u,-3%
N#CC1(c2ccc(NC(=O)c3ccccc3F)cc2)CCCC1,-29,5,-15,-4%,-3.6,-12%,4.5µM*,-10%
N#CC(CCc1ccc([N+](=O)[O-])cc1)(CCc1ccc([N+](=O)[O-])cc1)C(N)=O,-1,-85*,-4,15%,-0.2,-6%,u,-14%
CCn1c(SCC(=O)NCc2ccco2)nnc1C1CCCC1,5,-3,-4,-3%,-0.4,-16%,-9%,-12%
CC(=O)OCC1=C(C(=O)O)N2C(=O)C(NC(=O)C(C)Cn3cc(Cl)cn3)C2SC1 (centres undefined),6,1,3,-7%,0.2,3%,-5%,-18%
CC(C)C(N)c1csc(Nc2ccc(C(=O)N(C)Cc3ccccc3)cn2)n1 (centres undefined),21,2,6,7%,2.1,-24%,u,-4%
CCCCOc1ccc(C(=O)C(CN2CCOCC2)c2ccccc2)cc1 (centres undefined),-54*,12,-2,-9%,-0.4,u,u,-1%
COC(=O)c1ccc(C2C(C#N)=C(N)Oc3cc(C)n(C)c(=O)c32)cc1 (centres undefined),-10,-8,-3,2%,1.1,22%,32%[activator],-10%
C[C@H]1OC(OC2C(O)[C@@H](O)C(OC3C(O)[C@@H](O)C(O)O[C@@H]3CO)O[C@@H]2CO)[C@H](O)C(O)C1N[C@H]1C=C(CO)[C@@H](O)[C@H](O)C1O (some centres undefined),x,x,x,12%,x,x,x,x
COc1cccc(-c2cnc3c(NC=O)cc(-c4ccc(O)c(OC)c4)cn23)c1,0,-65*,1,-8%,-0.4,u,-72%,-26%
C1=C(c2ccccc2)Nc2ccccc2N=C1c1ccccc1,15,23,-2,-1%,1.4,2%,u,3%
COC(=O)c1cc(C)c(C)cc1NC1OC(CO)C(O)C1O (centres undefined),24,2,3,1%,0.5,19%,13%,-2%
CC(=O)OCC1=C(C(=O)O)N2C(=O)C(NC(=O)CCn3nc(C)c(Cl)c3C)C2SC1 (centres undefined),14,1,0,0%,-1.4,-12%,19%,-8%
O=C(Cn1cnc2sc3c(c2c1=O)CCCC3)NCC(=O)Nc1ccc(F)cc1F,8,1,17,-2%,-1.7,0%,-26%,-8%
CCOC(=O)N1CCN(C(=O)CSc2ccccc2)CC1,10,x,-1,7%,-2.1,-9%,10%,15µM*
O=C(NCc1ccccc1)c1noc2c1CCCC2,16,x,-11,-7%,-0.9,-29%,-26%,-7%
O=C(/C=C/NNC(=O)c1ccccc1O)c1ccccc1,0,-7,-5,-4%,-1.9,-13%,-4%,-23%
C#CCN1C(=O)C(O)(c2c(C)[nH]c3ccccc23)c2ccccc21 (centres undefined),5,-6,-18,-2%,-2.5,1%,-32%,-24%
O=C(O)c1c2c(nc3ccccc13)/C(=C/c1cccc([N+](=O)[O-])c1)CCC2,-15,2,-9,4%,-0.3,9%,21%,-4%
CCCOc1ccc(C(=O)N/N=C/c2ccc(-c3ccc(S(=O)(=O)Nc4ncccn4)cc3)o2)cc1,-28,x,-14,-4%,1.2,-1%,44%[activator],u
CC1CCCC(NC(=O)CSc2nnc(C(F)(F)F)n2C)C1C (centres undefined),6,1,-9,2%,-0.1,5%,8%,2%
CCNC(=S)N/N=C/c1ccc(OCC(=O)Nc2ccc(C)cc2)cc1,-27,x,0,-6%,-2.5,u,0%,-5%
O=c1[nH]c2ccccc2nc1NCc1ccccc1,14,-2,-2,u,-1.4,-13%,20%,-3%
O=C(c1ccc(Cl)cc1)C(CN1CCCC1)c1ccccc1 (centres undefined),u,-3,-7,-1%,-0.8,-4%,u,0%
Cn1nc(C(C)(C)C)cc1C(=O)N1CCC(C)(C(=O)NS(=O)(=O)C2CC2)C1 (centres undefined),10,-4,5,0%,-0.4,4%,30%,3%
COC(=O)CN1C(=O)N/C(=C/c2ccc(C)o2)C1=O,9,-21,7,1%,-0.6,7%,12%,-13%
CCc1cccc2c1NC(=O)C2(O)N1CCCC(C)C1 (centres undefined),-16,5,1,-5%,1.3,-4%,-14%,-12%
N#CC(CCc1ccccc1[N+](=O)[O-])(CCc1ccccc1[N+](=O)[O-])C(N)=O,3,-4,-1,17%,-0.6,12%,1%,5%
CN(CC(=O)NCC(=O)Nc1ccc(F)c(F)c1F)C1CCS(=O)(=O)C1 (centres undefined),0,-1,11,7%,-0.4,-10%,10%,2%

# Only part of the results is shown; count on the stated rates, not on these rows.
